eIF4H inh = human eIF4H binding inhibitors, primary screen, translation initiation inhibitor project, biochemical, uHTS, fluorescence polarization. Eukaryotic translation initiation factor 4H (Homo sapiens), Q15056. eIF4H fluorescence polarization binding assay. inhibition, % at 35 µM. hit rate 0.94% among 290,000. AID 2012, 2009;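 active = 50% or more with normal probe brightness, or confirmed in later tests; about a fifth of its hits are not listed in these tables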;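 note: calls also rest on retests at 20 µM and on dose response follow-up; 0% = protein and probe with vehicle and 100% = probe without protein; strong numbers were not always called active; many hits fall short of the cut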
Env fusion inh = inhibitors of HIV-1 Env-driven cell-cell fusion, primary screen, HeLa-JRFL effector, CEM21 target cells, luciferase; inhibition, % at 12.3 µM; AID 651610, 2012; hit rate 1.1% among 360,000;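 active = mean replicate inhibition score of at least 50 and every replicate individually at or above 50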;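 note: 0% = plate neutral controls and 100% = maraviroc near 300 nM; one replicate is shown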
MT1-MMP act inh = blockers of MT1-MMP proenzyme processing, primary screen, HT1080 RFP-PRO-GFP cells, GFP/RFP fluorescence | GFP/RFP ratio change, % at 20 µM | GFP/RFP ratio fluorescence, overnight; percent of plate control window, DMSO zero | hit rate 0.061% among 360,000;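 active = GFP/RFP ratio change of at least 30% with cell ATP level not reduced by more than half and red fluorescence within 50% of control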; note: strong numbers were not always called active
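Compound: 20 µM single dose, 1% DMSO / System: HT1080 RFP-PRO-GFP cells / Controls: DMSO and RFP-L50D-GFP cell wells / Read-out basis: GFP/RFP fluorescence ratio / Schedule: overnight compound exposure at 37 °C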
Yeast UUG start = modulators of yeast start codon fidelity, primary screen, whole organism, S. cerevisiae, single point, plate reader. activity score, % at 18.7 µM. hit rate 0.13% among 350,000. S. cerevisiae UUG-firefly luciferase reporter, luminescence/redox ratio;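 active = replicate mean at a twofold rise or more, about +100% in these data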;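 note: firefly luciferase made from a UUG start codon reports start codon fidelity; reporter light over untreated wells divided by growth signal over untreated wells; some hits fall short of that in this replicate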
CSC inhib = cancer stem cell viability inhibitors, primary screen, luminescence; inhibition, % at 7.5 µM; hit rate 1.1% among 300,000; cancer stem cell-like cells viability;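 active = mean at 75% or more and at least half the replicates too; tested in HMLE shEcad cells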;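 note: 0% = median of negative and 100% = median of positive control wells; the first replicate is given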
Rce1 inh = yeast Rce1p protease inhibitors, primary screen, biochemical, fluorescence, cell-free homogeneous. CAAX prenyl protease 2 (Saccharomyces cerevisiae (strain ATCC 204508 / S288c)), Q03530. yeast membranes, quenched prenylated peptide cleavage fluorescence. calls only. hit rate 0.27% among 290,000. AID 2563, 2010;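 active = fall in fluorescence gain of 50% or more versus controls, with final raw signal at or below 3038400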;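 note: plate controls were neutral control wells for no effect and wells lacking membranes for full effect; tested at 10 µM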
Target sequence (Q03530 whole entry, looked up): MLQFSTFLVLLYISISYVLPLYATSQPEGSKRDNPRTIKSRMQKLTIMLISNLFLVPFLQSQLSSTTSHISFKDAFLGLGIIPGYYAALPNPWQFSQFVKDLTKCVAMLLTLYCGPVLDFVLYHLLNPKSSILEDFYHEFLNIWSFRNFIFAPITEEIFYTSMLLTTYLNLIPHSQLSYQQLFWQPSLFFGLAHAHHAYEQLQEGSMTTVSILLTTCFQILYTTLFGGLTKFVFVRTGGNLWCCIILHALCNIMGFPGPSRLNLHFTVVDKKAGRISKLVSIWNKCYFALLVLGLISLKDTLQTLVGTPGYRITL
PABP FP inh = PABP poly(A) RNA binding inhibitors, primary screen, biochemical, fluorescence polarization, uHTS; inhibition, % at 35 µM; hit rate 1% among 290,000; AID 2014, 2009;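 active = 50% or more with normal probe brightness, or confirmed in later tests; about a fifth of its hits are not listed in these tables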;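 note: calls also rest on retests at 20 µM and on dose response follow-up; controls were probe without protein and protein plus probe with vehicle; some compounds called inactive have numbers as strong as hits; many hits fall short of the cut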
eIF4H inh retest = recorded beside eIF4H inh, whose call it bears; inhibition, %; compound at 20 µM; confirmation average;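 mean of two retest wells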
PABP FP inh retest = second read-out of PABP FP inh, no call of its own (marks repeat the call); inhibition, %; compound at 20 µM; confirmation repeats;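 mean of two retest wells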
MT1-MMP act inh RFP = further read-out of MT1-MMP act inh, marked with its call; RFP signal change, %; measured here: RFP expression control read;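 0 = vehicle wells; hits needed this value within 50% of zero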
Numbers without * were called inactive; i = inactive; . = no result given. Random draw from the library. About 2.9% of those tested had a hit in this group.

SMILES | eIF4H inh | Env fusion inh | MT1-MMP act inh | MT1-MMP act inh RFP | Yeast UUG start | CSC inhib | Rce1 inh | PABP FP inh | others
Nc1nonc1C(=O)NCCN=Cc1ccccc1O | 0 | . | 2 | 1 | 5 | -7 | i | -3
COc1ccnc2c1c(=O)n(Cc1cccc(F)c1)c(=O)n2C | -1 | 2 | 4 | 3 | -9 | 0 | i | 6
CNC(=O)CSc1nc2ccccc2c(=O)n1C1CCCCC1 | 34 | 9 | 1 | -1 | -7 | 0 | i | 2
Cc1noc(C)c1S(=O)(=O)N(CC(=O)NC1CCCC1)c1ccc(C(C)C)cc1 | -8 | 14 | -1 | 2 | -6 | -8 | i | 7
Cc1cccc(N2CCN(C(=S)c3ccc([N+](=O)[O-])cc3)CC2)c1 | -4 | 21 | 5 | 5 | . | 34 | i | -7
Cc1cc(C)cc(C(=O)NCC(=O)OCC(=O)N(C)c2ccccc2)c1 | -3 | -1 | 4 | 3 | . | -6 | i | 2
c1csc(-c2cnc3ccccc3n2)c1 | -1 | -265 | 2 | 0 | -15 | -8 | i | -4
O=C(CN1CCOc2ccccc21)NCc1ccc(Cl)cc1 | 3 | 22 | -1 | 2 | -5 | 13 | i | 11
COCCNC(=S)NNC(=O)c1cc(C2CC2)nc2ccccc12 | 4 | 2 | -2 | 0 | -25 | -7 | i | 9
CC1(C)NC(=O)N(CCOCCOc2cccc(Oc3ccccc3)c2)C1=O | -10 | 60* | 1 | -7 | 2 | -1 | i | 1
C#CCNC(=O)C1=C[C@@H](c2ccccc2)[C@H](CCCO)[C@@H](OCC)O1 | -2 | 15 | 1 | 2 | -2 | -3 | i | -1
O=[N+]([O-])c1ccc(OCCCCCN2CCOCC2)cc1 | 5 | 13 | -1 | -1 | -11 | 18 | i | 5
CCN(CC)S(=O)(=O)c1cc(NC(=O)COC(=O)CCc2nc3ccccc3s2)ccc1C | -4 | . | 6 | 4 | -6 | 0 | i | 13
CN(Cc1ccccc1)C(=O)COC(=O)c1c[nH]c2ccccc12 | . | -17 | 5 | 3 | -15 | . | . | .
COc1cccc(/C=C/C(=O)OCC(=O)NCCc2ccccc2)c1 | -3 | 5 | -5 | -2 | . | -11 | i | -3
COc1ccc(S(=O)(=O)NCCc2c[nH]c3ccc(C)cc23)cc1 | -9 | -7 | 3 | 1 | -12 | . | i | 6
C/C(=N\NC(=O)Cc1ccc(F)cc1)c1ccc(O)cc1 | -7 | -9 | 0 | 2 | . | -1 | i | -5
CCN1C(=O)CC(N2CCC(C(=O)OC)CC2)C1=O (configuration not stated) | 0 | . | 0 | 4 | -5 | -5 | i | -7
O=c1c(Cc2ccccc2)c(O)ccn1Cc1ccco1 | -7 | -8 | -1 | -3 | . | 4 | i | -2
O=C(CCc1nc2ccccc2s1)Nc1cccnc1 | 22 | 11 | 0 | 3 | -16 | 3 | i | -2
CCCCN(C(=O)c1cccc(S(=O)(=O)N2CCN(C)CC2)c1)c1c(N)n(CCC)c(=O)[nH]c1=O | . | -15 | -3 | 0 | . | -1 | i | .
Cc1cc(C)c(C(=O)CSc2nnc(-c3cccnc3)n2C)c(C)c1 | -1 | . | 2 | 0 | . | -7 | i | -4
CNc1cccccc1=S | 101* | -32 | -3 | 8 | -19 | -12 | i | 61* | eIF4H inh retest=108*;PABP FP inh retest=78*
CCOc1ccc(CNC(=O)CCS(=O)(=O)Cc2ccc(C)cc2)cc1OC | 1 | 22 | 0 | -2 | -7 | -3 | i | -5
Cn1c(SCC(=O)c2ccccc2)nnc1-c1cccnc1 | -4 | -17 | 4 | 1 | -18 | 3 | i | 0

Quoted at random: 2 entries already listed.
SMILES | eIF4H inh | Env fusion inh | MT1-MMP act inh | MT1-MMP act inh RFP | Yeast UUG start | CSC inhib | Rce1 inh | PABP FP inh | others
O=[N+]([O-])c1ccc(OCCCCCN2CCOCC2)cc1 | 5 | 13 | -1 | -1 | -11 | 18 | i | 5
CCOc1ccc(CNC(=O)CCS(=O)(=O)Cc2ccc(C)cc2)cc1OC | 1 | 22 | 0 | -2 | -7 | -3 | i | -5

The results go on.
SMILES | eIF4H inh | Env fusion inh | MT1-MMP act inh | MT1-MMP act inh RFP | Yeast UUG start | CSC inhib | Rce1 inh | PABP FP inh | others
CC(=O)C1=C(O)C(=O)N(CC#N)C1c1cccs1 (configuration not stated) | -4 | 43 | 1 | 1 | -13 | 21 | i | 14
Clc1ccc(OCCSc2nnnn2C2CCCCC2)cc1 | -19 | . | 4 | 3 | . | -15 | i | -5
COc1cccc(NC(=O)COC(=O)CCC2CCCC2)c1 | . | . | 0 | 8 | -1 | -2 | . | .
C=CCn1c(SCC(=O)NC2CC2)nnc1-c1ccccn1 | -3 | -7 | 0 | 8 | -7 | -4 | i | -13
Cn1c(=O)c2c(ncn2CC(=O)N2CCCCCC2)n(C)c1=O | 0 | -4 | 1 | 3 | . | -15 | i | -1
CC(=NCc1ccco1)C1=C(O)c2ccccc2C1=O | 6 | -33 | -2 | -3 | -15 | 29 | i | 7
O=c1[nH]c2ccccc2cc1CN(c1ccccc1)S(=O)(=O)c1ccccc1 | -2 | -11 | -2 | -3 | . | . | i | -5
Cc1ccnc(SCC(=O)Nc2c(C)n(C)n(-c3ccccc3)c2=O)n1 | 3 | -27 | 2 | 8 | -11 | 6 | i | 5
O=C(CCN1N=C(c2ccccc2)CCC1=O)NCC1CCCO1 (configuration not stated) | -4 | -3 | -5 | 1 | -1 | -9 | i | -4
CCN1CCN(c2ccc([N+](=O)[O-])c(Sc3nc4ccccc4[nH]3)c2)CC1 | -4 | . | 1 | 3 | . | 0 | i | -3
CN(Cc1ccccc1)c1ncnc2c1cnn2-c1ccccc1 | -3 | . | 1 | -12 | -17 | -5 | i | -2
NNC(=O)COc1ccc(C(F)(F)F)cc1 | 5 | 26 | 6 | 8 | -11 | -1 | i | -2
CCOC(=O)c1[nH]c2ccc(OC)cc2c1NC(=O)c1cccc(OC)c1 | 2 | -354 | 6 | 0 | -7 | -12 | i | 6
COc1ccc(-c2cc(C(=O)OCC(=O)c3c(N)n(C)c(=O)n(C)c3=O)c3ccccc3n2)cc1 | -6 | 7 | 0 | -4 | . | 5 | i | 3
O=C(CN1CCN(C2CCCCC2)CC1)Nc1ccccc1-c1ccccc1 | 19 | . | 2 | 4 | -12 | 33 | i | -6
CCN1/C(=C/c2ccc3cc(C)ccc3[n+]2C)Sc2ccc3sccc3c21 | -35 | 61* | -6 | 71 | -20 | . | . | -35
CC(Cc1ccsc1)NC(=O)CCc1nnc(COc2ccccc2)o1 (configuration not stated) | -1 | 14 | -5 | 3 | 27 | -4 | . | 0
COc1cc(CCN2C(=O)N[C@@H](c3cccc(C(F)(F)F)c3)C(C(C)=O)=C2C)cc(OC)c1OC | 2 | . | . | . | . | -13 | i | 6
CCCc1cc(=O)[nH]c(SCC(=O)NCCCC(=O)OCC)n1 | 0 | -22 | 0 | 5 | -2 | -6 | i | -6
COc1ccccc1N1CCN(C(=O)CNS(=O)(=O)c2ccc(Br)s2)CC1 | 6 | 28 | -2 | -5 | 1 | -9 | i | 17
COc1ccc2nc(SCC(=O)C(C)(C)C)[nH]c2c1 | 6 | -24 | 2 | 3 | . | -2 | i | 8
CC(=O)c1ccc(NC(=O)CCn2c(=O)oc3ccccc32)cc1 | 0 | -53 | 0 | 1 | -10 | -12 | i | -7
CCOc1ccc(CCNC(=O)C(CCC(N)=O)NC(=O)OCc2ccccc2)cc1OCC (configuration not stated) | -1 | 9 | 4 | 5 | . | -12 | i | -4
COc1ccc(NC(=O)C2CCCN(S(=O)(=O)c3ccc4c(c3)oc(=O)n4C)C2)cc1OC (configuration not stated) | -8 | 8 | 2 | -4 | -13 | -12 | i | 7
OC(COc1c(F)cc(Br)cc1F)CN1CCN(c2ccc(F)cc2)CC1 (configuration not stated) | -9 | . | 1 | -3 | 4 | -5 | i | 0

Quoted from the listing (6 entries):
SMILES | eIF4H inh | Env fusion inh | MT1-MMP act inh | MT1-MMP act inh RFP | Yeast UUG start | CSC inhib | Rce1 inh | PABP FP inh | others
COc1ccccc1N1CCN(C(=O)CNS(=O)(=O)c2ccc(Br)s2)CC1 | 6 | 28 | -2 | -5 | 1 | -9 | i | 17
COc1ccc2nc(SCC(=O)C(C)(C)C)[nH]c2c1 | 6 | -24 | 2 | 3 | . | -2 | i | 8
CC(=O)c1ccc(NC(=O)CCn2c(=O)oc3ccccc32)cc1 | 0 | -53 | 0 | 1 | -10 | -12 | i | -7
CCOc1ccc(CCNC(=O)C(CCC(N)=O)NC(=O)OCc2ccccc2)cc1OCC (configuration not stated) | -1 | 9 | 4 | 5 | . | -12 | i | -4
COc1ccc(NC(=O)C2CCCN(S(=O)(=O)c3ccc4c(c3)oc(=O)n4C)C2)cc1OC (configuration not stated) | -8 | 8 | 2 | -4 | -13 | -12 | i | 7
OC(COc1c(F)cc(Br)cc1F)CN1CCN(c2ccc(F)cc2)CC1 (configuration not stated) | -9 | . | 1 | -3 | 4 | -5 | i | 0

Arranged by molar mass (low to high): some entries from above
SMILES | eIF4H inh | Env fusion inh | MT1-MMP act inh | MT1-MMP act inh RFP | Yeast UUG start | CSC inhib | Rce1 inh | PABP FP inh | others
NNC(=O)COc1ccc(C(F)(F)F)cc1 | 5 | 26 | 6 | 8 | -11 | -1 | i | -2
COc1ccc2nc(SCC(=O)C(C)(C)C)[nH]c2c1 | 6 | -24 | 2 | 3 | . | -2 | i | 8
COc1cc(CCN2C(=O)N[C@@H](c3cccc(C(F)(F)F)c3)C(C(C)=O)=C2C)cc(OC)c1OC | 2 | . | . | . | . | -13 | i | 6

Other structures.
SMILES | eIF4H inh | Env fusion inh | MT1-MMP act inh | MT1-MMP act inh RFP | Yeast UUG start | CSC inhib | Rce1 inh | PABP FP inh | others
C=CCn1cc(C(=O)NCCOC)c(=O)c2cc(S(=O)(=O)N(CC)CC)ccc21 | 7 | 18 | -2 | -3 | -9 | 0 | i | -2
CCN1CCN(c2nc(-c3ccncc3)nc3ccccc23)CC1 | 2 | . | . | . | . | -12 | i | 7
CC(C)(C)C(=O)NCCCc1nc2ccccc2n1CCCOc1ccc(Cl)cc1 | -10 | . | -13 | -29 | 5 | . | i | -1
COc1cc(Cl)c(C)cc1NC(=O)CSc1cc(Cl)ccc1Cl | -8 | 11 | 1 | 2 | -16 | 13 | i | 3
C[C@H](NC(=O)c1ccco1)C(=O)Nc1cc(S(=O)(=O)N2CCCC2)ccc1OCC(F)(F)F | . | 24 | 1 | 0 | -3 | -16 | . | .
COc1ccc(NC(=S)Nc2cccc3ccccc23)cc1OC | 15 | 3 | 6 | 5 | -26 | 1 | i | 22
COc1ccccc1CNC(=O)COC(=O)Cc1cccs1 | -8 | -13 | 2 | 5 | -15 | 0 | i | -5
O=C(Nc1ccc(F)cc1)N1CCN(c2ccc(F)cc2)CC1 | 8 | 27 | -1 | 0 | . | 5 | i | -1
CCn1c(-c2cc(-c3ccc(C)c(C)c3)nc3ccccc23)n[nH]c1=S | 9 | . | . | . | . | -4 | i | 15
CCN(CC)CC#Cc1ccc(C)cc1 | 4 | -3 | -1 | -1 | -16 | -11 | i | 3
CC1(C)C(=O)Nc2ccccc2N1C(=O)c1ccc([N+](=O)[O-])cc1 | -4 | 3 | 6 | -4 | -10 | -12 | i | 0
O=C(CN1c2ccccc2S(=O)(=O)c2ccccc21)NCc1ccc(F)cc1 | 1 | 0 | 2 | 2 | -5 | -5 | i | 1
